Menin MLL FP FL: inhibitors of human menin-MLL interaction, wild-type MLL peptide | FP activity change, % at 61.4 µM | Fluorescence polarization, fluorescein-MLL peptide displacement from menin | 290,000 tested, under 10 active; inconclusive = falling polarisation curve, or a change in total fluorescence; inactive = total fluorescence flat and polarisation flat or rising; no compound was filed as active; the % refers to the polarisation; negative = inhibition;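 note: % of control where 0% means no effect; inhibitors lower the polarisation; unlabelled MLL peptide was the positive control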
ClpP mod: qHTS Assay for Activators of ClpP; Potency, µM (top dose mostly 57.5 µM), for the others: top-dose activity change, negative = active; ATP-dependent Clp protease proteolytic subunit (Bacillus subtilis (strain 168)), P80244; actives 1.9% (n = 340,000); AID 651965, 2013; purified B. subtilis ClpP, FRET peptide cleavage, 20 min; active = well fitted falling curve with a large enough effect; inconclusive = small, poorly fitted or top-dose-only effect; inactive = no such curve, though single readings can be large or run the other way; note: potency is the fitted concentration of half-maximal effect; the source files actives as falling curves though it sought activators and does not explain the sign; nearly all actives have a fitted effect of over 65% in size; many hits overshoot -100%
Target sequence (P80244 whole entry, looked up): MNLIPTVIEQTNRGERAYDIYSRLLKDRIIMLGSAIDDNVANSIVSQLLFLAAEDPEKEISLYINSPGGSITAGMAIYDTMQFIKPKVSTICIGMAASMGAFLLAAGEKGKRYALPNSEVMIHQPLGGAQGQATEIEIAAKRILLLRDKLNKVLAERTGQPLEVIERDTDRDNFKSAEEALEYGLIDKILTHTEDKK
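FRET quenching reversal measured ClpP activation: 10 microg/mL B. subtilis ClpP at pH 8 with the FRET-FV decapeptide, read at 430 nm after 320 nm excitation. The 20-min minus 0-min signal was scaled between DMSO/no-enzyme wells and ADEP (5.8 microM final).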
gsp antag: gsp mutant antagonism | actives 0.4% (n = 340,000) | AID 624288 | gsp-mutant cells, cAMP HTRF, 30 min; control for the full effect not named in the record | Potency, µM (titrated, usually from 76.9 µM), for the others: top-dose activity change, negative = inhibition, most hits filed as inhibitors; active = falling curve of any shape with a large fitted effect; inconclusive = falling curve, mostly with a smaller effect; inactive = flat or rising curve; cell line not stated here;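 note: intracellular cAMP measured with PDE inhibitor Ro 20-1724 present during compound exposure; potency is the fitted concentration of half-maximal effect; % is set by controls: 0 for no effect and ±100 for the full control effect; nearly all actives have a fitted effect of over 65% in size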
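Cells, 2000/well, grown 16–24 h in DMEM 10% FBS with 0.5 mg/ml G418, then compounds plus […] (300 uM addition stock), 30 min at 37C. cAMP read by HTRF (cAMP-d2 and anti-cAMP antibody-K in lysis buffer) after 30 min RT.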
gsp agonist: gsp mutant agonism; gsp mutant cells, cAMP HTRF, 30 min; control for the full effect not named in the record; Potency, µM (doses to about 76.9 µM), for the others: top-dose activation (cAMP increase), most hits filed as activators; actives 0.13% (n = 340,000); AID 624287; active = well fitted activation curve with a large enough effect; inconclusive = small, poorly fitted or top-dose-only effect, or another doubt; inactive = no such curve, though single readings can be large or run the other way; cell line not stated here;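 note: phosphodiesterase inhibitor Ro 20-1724 added with compounds to block cAMP breakdown; potency is the fitted concentration of half-maximal effect; nearly all actives have a fitted effect of over 60% in size; about a fifth of the inactives were tested at one dose only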
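Cells stably selected in G418 were plated at 2000/well, grown 16-24 hr, then given compounds in DMSO with the PDE inhibitor […] (300 uM solution added) for 30 min at 37C; cAMP was read by HTRF.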
PINK1 expr mod: modulators of PINK1 expression; PINK1 immunofluorescence, high-content cytometry, 24 h; Potency, µM (top dose mostly 76.6 µM), inactives show at the highest dose activation (PINK1 increase), most hits filed as activators; actives 0.2% (n = 410,000); AID 624263; active = well fitted activation curve with a large enough effect; inconclusive = small, poorly fitted or top-dose-only effect; inactive = flat fitted curve, though single readings scatter; cell line not stated here;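 note: potency is the fitted concentration of half-maximal effect; % of control where 0% means no effect; nearly all actives have a fitted effect of over 65% in size; a mitochondrial uncoupler was the plate control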
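PINK1 protein, normally rapidly degraded, was detected by immunofluorescence after 24 hour compound treatment of a stable cell line. Titration data (5 concentrations) came from laser-scanning cytometry, with CCCP-treated wells as controls.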
Sfp PPTase inh: Sfp phosphopantetheinyl transferase inhibition; Q9F4F7; Biochemical Sfp PPTase activity, qHTS; Potency, µM, inactives show max response, negative = inhibition, usual class: inhibitors; actives 3.5% (n = 310,000); AID 1490; active = well fitted inhibition curve with a large enough effect; inconclusive = small, poorly fitted or top-dose-only effect, or another doubt; inactive = no such curve, though single readings can be large or run the other way;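 note: the enzyme is Sfp with the accession as filed and its product quenches rhodamine fluorescence; potency is the fitted concentration of half-maximal effect; 0% = enzyme reaction without inhibitor and -100% = no enzyme wells; top concentration of the series not given in the record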
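Compounds were incubated with enzyme (final 15 nM) for 15 min at room temperature before substrate addition started the reaction. Fluorescence at 525 nm excitation, 598 nm emission was recorded immediately and after 30 minutes.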
D2 agonist: agonists of human D2 dopamine receptor (beta-arrestin) | activation, % (test concentration not listed) | DiscoveRx PathHunter D2 beta-arrestin, luminescence, 90 min; 100% = 57 uM dopamine signal | AID 624465 | P14416 | actives 0.084% (n = 360,000); in the data active = activation above about 40%; inconclusive = about 15% to 40%; inactive = below about 15%; note: compound concentration not given in the record; the text of the record calls up to 30% inactive
Target sequence (P14416 whole entry, looked up): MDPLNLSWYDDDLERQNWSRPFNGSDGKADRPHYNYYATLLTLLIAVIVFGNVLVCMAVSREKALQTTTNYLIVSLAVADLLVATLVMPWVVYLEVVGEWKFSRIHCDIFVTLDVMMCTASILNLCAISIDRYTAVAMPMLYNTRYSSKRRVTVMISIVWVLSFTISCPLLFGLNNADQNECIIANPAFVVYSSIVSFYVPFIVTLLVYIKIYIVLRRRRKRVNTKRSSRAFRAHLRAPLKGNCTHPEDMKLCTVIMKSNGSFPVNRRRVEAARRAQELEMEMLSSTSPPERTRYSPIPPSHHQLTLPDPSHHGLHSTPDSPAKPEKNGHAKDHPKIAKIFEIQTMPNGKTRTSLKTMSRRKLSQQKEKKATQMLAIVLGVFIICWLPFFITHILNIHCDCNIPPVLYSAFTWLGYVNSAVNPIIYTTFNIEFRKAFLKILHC
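Agonist mode: compounds alone added to overnight-plated D2 PathHunter cells for 90 min at 37 C, with 57 uM final dopamine (EC100) defining full response. Beta-arrestin recruitment detected by chemiluminescent reagent, read after 1 h at ambient temperature.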
An asterisk follows results filed as active; u = inconclusive; x = not tested or not shown; & = joins results of further samples; [ ] = another dose, or the depositor's remark.

Each structure is followed by: Menin MLL FP FL, ClpP mod, gsp antag, gsp agonist, PINK1 expr mod, Sfp PPTase inh, D2 agonist
Cc1c(C(=O)NCc2ccc3c(c2)OCO3)oc2ccc(Br)cc12
    3.3, -0.5%, 7%, -5%, 6.6%[38.3 µM], 17%, -1.0
CSCCC(NC(=O)c1cccc(C)c1)C(=O)OCC(=O)NC(=O)c1cccn1C (stereo unspecified)
    4.3, 0.7%, 9%, -35%[inhibitor], -2.7%, 9%, -1.9
Cc1ccc(C(=O)N2CCN(c3ccccn3)CC2)cc1Cl
    -4.0, x, 5%, -28%, -0.3%, -3%, 8.9
COc1ccc(OC)c(NC(=O)Nc2cc(C(=O)O)ccc2C)c1
    -1.4, x, 2%, u, 0.9%, -14%, 4.9
Cc1ccc(CNC(=O)CCCC(=O)c2ccccc2)cc1
    5.1, x, 4%, -53%[inhibitor][15.4 µM], -1.4%, 3%, 4.7
O=c1[nH]n(-c2ccc(Cl)cc2)c2ncccc12
    5.1, -2.8%, -23%, -42%[inhibitor], 22%[38.3 µM], 1%, -3.8
COc1ccc(/C=N/NC(=O)CCc2n[nH]c(=O)[nH]c2=O)cc1O
    2.2, -8.2%, 14%, -10%, -0.4%, 14%, -0.7
CC(=O)NC(Cc1ccccc1)C(=O)Oc1ccc2ccccc2c1 (stereo unspecified)
    x, x, 9%, 0%, 2.8%, x, 2.2
O=C(CSc1nnc(Nc2ccccc2)s1)NC1CC1
    x, -0.9%, 6%, 24%, -1.1%, x, -3.6
COc1ccccc1C(=O)Nc1nc(N)n(-c2ccccc2)n1
    0.1, 1.5%, 4%, -48%[inhibitor], 1.1%, 9%, -2.4
CC(C)OCCCn1c(SCC(=O)N2CCCC2=O)nc2ccccc2c1=O
    x, -1.0%, -11%, u, 1.2%, x, 0.9
COc1ccc(OC)c(NC(=O)C(C#N)=Cc2ccco2)c1
    x, x, 2%, -30%, 9.6%, x, 4.2
NC(=O)SCC(=O)Nc1cccc(Cl)c1
    9.7, 0.9%&0.6%, 4%, 26%, 8.1%, -2%, -4.7
N#Cc1nc(-c2ccco2)oc1N1CCN(C(c2ccccc2)c2ccccc2)CC1
    3.6, 6.3µM*, -4%, 6%, 1.1%[38.3 µM], 5%, 1.9
N#Cc1ccccc1S(=O)(=O)N1CCN(c2nc(-c3cccnc3)nc3ccccc23)CC1
    x, -7.6%, u, 4%, -4.5%, x, 0.3
COc1ccc(Br)cc1CNc1ccc(S(N)(=O)=O)cc1
    2.6, -1.4%, 0%, 22%, -1.7%, 5%, -2.3
CCc1ccc(S(=O)(=O)NCC(O)COc2ccc(OC)cc2)cc1 (stereo unspecified)
    9.3, 1.4%, -16%, -5%[15.4 µM], 1.2%, 15%, -3.3
CC(=O)Nc1ccc(S(=O)(=O)N2CCC(n3cnc4cc(F)ccc43)CC2)cc1
    -0.6, -2.2%, 5%, 1%, -1.5%, 12%, 0.3
Cc1ccc(CNC(=O)c2ccc(Br)o2)cc1
    2.7, 0.0%, 1%, -6%, 9.4%[38.3 µM], -26%, -2.9
Cc1[nH]c2ccc(F)cc2c1CCN1C(=O)OC(C)(C)C1(C)O (stereo unspecified)
    -1.4, x, 0%, -11%[15.4 µM], 1.1%, 6%, -6.1

Each structure is followed by: Menin MLL FP FL, ClpP mod, gsp antag, gsp agonist, PINK1 expr mod, Sfp PPTase inh, D2 agonist
CCCN1CCN(CCCNC(=O)CN2C(=O)COc3ccccc32)CC1
    -11, 0.0%, 10%, -23%, x, -3%, 0.8
COc1ccc(/C=N/Nc2ncnc3sc(C)c(C)c23)cc1
    x, -2.4%, -12%, -6%[15.4 µM], 16%, -18%, -5.7
COc1ccc(C(C(O)C(=O)c2c[nH]c3ccccc23)N2CCN(c3ccccc3)CC2)cc1 (stereo unspecified)
    1.3, 0.1%, -13%, -1%[15.4 µM], -1.1%, 9%, -2.1
CC1=NN2C(=N)/C(=C\c3cc(C)n(-c4ccc(C)cc4)c3C)C(=O)N=C2S1
    -0.1, 1.4%, -5%, -2%[15.4 µM], u, 3%, -6.7
Cn1c(-c2ccc(Br)o2)nc2cc(Br)ccc21
    7.1, -3.9%, 0%[15.4 µM], u, -0.7%, 40µM*, -0.2
C=C(CC[C@@H](O)C(C)(C)O)[C@H]1CC[C@]2(C)[C@@H]1CCC1[C@@]3(C)CCC(=O)C(C)(C)C3CC[C@]12C (stereo partly specified)
    x, -0.2%, -5%, -36%[inhibitor], 0.0%, x, -4.0
COc1ccccc1CN1CC(C(=O)N(Cc2cnn(C)c2)C(C)C)CCC1=O (stereo unspecified)
    2.8, -4.6%, -12%, -2%, -0.8%, 2%, 5.2
COc1ccc(C(=O)Cn2cnc3ccccc3c2=O)c(OC)c1
    x, -0.3%, -1%, -8%, 1.6%, 3%, 8.4
CCCn1nc(C(=O)NC2CCCc3ccccc32)c2ccccc2c1=O (stereo unspecified)
    5.3, -2.7%, -18%, -2%[15.4 µM], 1.1%, -14%, -3.2
Cc1c(C(=O)N2CCCC2)nnn1-c1nonc1N
    4.0, 1.4%, -4%, 17%, -1.5%, 27%, -2.1
O=C(c1cccc([N+](=O)[O-])c1)N1CCN(c2ncccn2)CC1
    -0.4, 0.0%, 6%, u, 0.7%, 6%, 1.2
O=C(Nc1nc2ccccc2[nH]1)c1ccc(S(=O)(=O)N2CCOCC2)cc1
    -6.9, -2.2%, 5%, 3%, 1.3%, 14%, -8.9
N#Cc1ccccc1S(=O)(=O)N1CCN(C(=O)C2CCCC2)CC1
    0.9, x, -2%, -5%, -0.6%, 20%, -4.9
Cc1ccc(-c2nn3c(-c4ccco4)nnc3c3ccccc23)cc1S(=O)(=O)NCC1CCCO1 (stereo unspecified)
    7.3, 71%, 9%, u, 19%, 50µM*, 1.6
O=C(NCc1ccc(F)cc1)c1cc(S(=O)(=O)N2CCCCC2)c[nH]1
    -2.0, 2.0%, 13%, 22%, -0.8%, 17%, -4.2
NC(=O)C12C(=O)NC(=O)C1(C(=O)O)C21CCCC1 (stereo unspecified)
    x, -2.0%, 4%, 14%, -3.2%, x, -4.2
CC(OC(=O)[C@@H](NS(=O)(=O)c1ccccc1)C(C)C)C(=O)c1c(N)n(C)c(=O)n(C)c1=O (stereo partly specified)
    x, 0.8%, x, 17%, -0.2%, x, 0.9
CCC(C)Cn1c(C(C)O)nc2ccccc21 (stereo unspecified)
    0.2, 1.4%, -6%, 0%, 0.1%, -1%, -0.9
CCS(=O)(=O)Nc1cccc(-c2nc3cccnc3s2)c1C
    6.5, -8.0%, 2%, -12%, 1.3%, 19%, -3.1
CC(=O)c1ccc(S(=O)(=O)N2CCCC2)cc1
    -1.6, -3.0%, -5%, 23%, 4.2%[38.3 µM], 16%, 2.8

Each structure is followed by: Menin MLL FP FL, ClpP mod, gsp antag, gsp agonist, PINK1 expr mod, Sfp PPTase inh, D2 agonist
O=C(Nc1cccc(N2CCCC2)c1)c1cccs1
    1.0, -3.0%, -18%, -2%, -4.6%[38.3 µM], 11%, -0.2
CC(=O)N1CCN(C(=O)C2(NC(=O)Nc3cccc(F)c3)CCCCC2)CC1
    -9.1, x, 7%, 15%[15.4 µM], -0.1%, -2%, -3.9
CC(C)C(=O)Nc1ccccc1Cc1ccccc1
    -3.1, x, -7%, 1%[15.4 µM], 0.4%, 18%, 9.2
CCN(CC)C1=CC(=O)OC12CCCCC2
    3.4, 0.5%, 1%, 10%, 2.0%, 35µM*, -1.3
O=c1[nH]c(Cc2cccs2)nc2ccccc12
    0.4, 0.8%, 11%, -18%, 5.3%[38.3 µM], -6%, 0.0
NC(=O)C1CCN(CC(O)CSc2ccc(F)cc2)CC1 (stereo unspecified)
    1.3, 0.0%, 15%, -1%[15.4 µM], 1.0%, 1%, 4.3
Cc1ccc(N=C2SCCCN2C(=O)c2cccc(N3C(=O)CCC3=O)c2)cc1Cl
    x, -6.7%, 9%, 18%, 12%, x, -1.9
COc1ccccc1OCC(=O)Nc1ccc(-c2nnc(-c3ccco3)o2)cc1
    -0.4, -0.7%, 3%, 0%[15.4 µM], 2.4%, -2%, -5.0
O=C(Nc1c2c(nn1-c1ccc(F)cc1)CS(=O)(=O)C2)C12CC3CC(CC(C3)C1)C2
    0.0, 1.5%, -11%, -39%[inhibitor], 4.2%, 10%, -3.5
COc1ccc(CCN2C(=O)CC(Cc3cccc(C)c3)C2=O)cc1OC (stereo unspecified)
    3.0, x, -7%, -11%, 0.5%, -2%, -1.1
COC(=O)c1c(NC(=O)CN2CCN(c3cccc(Cl)c3)CC2)sc(C)c1C
    6.3, -1.2%, 2%, -26%[15.4 µM], 2.9%, 5%, -2.8
COc1cc(C(O)c2nc(-c3ccc(F)cc3OC)cs2)ccc1F (stereo unspecified)
    x, -2.4%, x, x, 5.6%, x, -1.5
CC(C)Oc1cccc(C(=O)C2CCCN(C(=O)c3cncs3)C2)c1 (stereo unspecified)
    x, -1.7%, 5%, -35%[inhibitor], -0.2%, 9%, 0.7
CCN(Cc1nc(-c2ccc(OC)c(OC)c2)no1)C(=O)c1ccoc1C
    -0.1, x, 6%, 1%[15.4 µM], -2.4%, 7%, -0.5
CN(C(=O)c1cccc(C(F)(F)F)c1)C1CCCc2ccccc21 (stereo unspecified)
    0.1, x, -14%, u, -1.6%, -3%, -3.1
COc1ccccc1Nc1ncc(C(=O)N2CCN(Cc3ccc(OC)c(OC)c3OC)CC2)c2ccccc12
    42[activator], -9.1%, -25%, -10%, -0.7%, -2%, -3.0
COc1ccc(-c2ccc3oc(-c4ccsc4)cc(=O)c3c2)cn1
    x, -9.0%, 8%, x, -0.3%, x, 3.0

An excerpt of these results, comma-delimited:
SMILES,Menin MLL FP FL,ClpP mod,gsp antag,gsp agonist,PINK1 expr mod,Sfp PPTase inh,D2 agonist
O=c1[nH]c(Cc2cccs2)nc2ccccc12,0.4,0.8%,11%,-18%,5.3%[38.3 µM],-6%,0.0
NC(=O)C1CCN(CC(O)CSc2ccc(F)cc2)CC1 (stereo unspecified),1.3,0.0%,15%,-1%[15.4 µM],1.0%,1%,4.3
Cc1ccc(N=C2SCCCN2C(=O)c2cccc(N3C(=O)CCC3=O)c2)cc1Cl,x,-6.7%,9%,18%,12%,x,-1.9
